GIRK2 activ – GIRK2 channel activation. P48051. HEK293-GIRK2 thallium flux, Thallos fluorescence. calls only for hits at 25 µM. 0.05% of 63,000 active;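 active = among the strongest 0.2% of first-round signals and kept after retests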;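 note: first round at about 10 µM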
Target sequence (P48051 whole entry, looked up): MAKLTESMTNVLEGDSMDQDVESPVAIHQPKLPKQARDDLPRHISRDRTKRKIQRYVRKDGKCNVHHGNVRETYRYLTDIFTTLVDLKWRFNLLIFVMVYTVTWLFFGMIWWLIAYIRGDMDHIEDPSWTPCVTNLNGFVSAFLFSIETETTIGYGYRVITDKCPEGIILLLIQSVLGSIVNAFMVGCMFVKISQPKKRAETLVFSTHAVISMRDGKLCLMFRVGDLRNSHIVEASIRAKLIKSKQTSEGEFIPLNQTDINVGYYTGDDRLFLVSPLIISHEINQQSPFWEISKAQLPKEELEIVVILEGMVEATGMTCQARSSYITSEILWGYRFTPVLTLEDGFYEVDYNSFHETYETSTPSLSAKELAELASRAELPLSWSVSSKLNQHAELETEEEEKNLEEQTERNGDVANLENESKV
Calls only. This is a subset (hit frequency here may not be typical).

The first three records (preview)
COC(=O)N1CCc2ccc(F)cc2C1C(=O)Nc1cccc2nsnc12 (centres undefined) was read as GIRK2 activ inactive.
O=C(CN1C(=O)CCC1=O)NCCn1nc(C2CC2)n(-c2ccccc2)c1=O was read as GIRK2 activ inactive.
`O=C(C1CCCC1)N1CCCC(c2nnc(Cc3ccccc3)s2)C1` (centres undefined) gave GIRK2 activ inactive.

All compounds of this part (from the top)
COC(=O)N1CCc2ccc(F)cc2C1C(=O)Nc1cccc2nsnc12 (centres undefined) was read as GIRK2 activ inactive.
O=C(CN1C(=O)CCC1=O)NCCn1nc(C2CC2)n(-c2ccccc2)c1=O was read as GIRK2 activ inactive.
`O=C(C1CCCC1)N1CCCC(c2nnc(Cc3ccccc3)s2)C1` (centres undefined) gave GIRK2 activ inactive.
CCOc1ccc(S(=O)(=O)NCCNC(=O)c2ccc(NC(=O)C(C)(C)C)cc2)cc1 was read as GIRK2 activ inactive.
Cc1ccc(Cl)cc1N1CCN(Cc2nc3c(c(=O)[nH]c(=O)n3C)n2CC(=O)c2ccccc2)CC1 was read as GIRK2 activ inactive.
`O=C(COc1ccc2c(c1)OCO2)Nc1cc(N2CCN(c3ccccc3)CC2)ncn1` gave GIRK2 activ inactive.
CCN(CC)CCCN1C(=O)C(O)=C(C(=O)c2sc(C)nc2C)C1c1ccc(C)o1 (centres undefined) was read as GIRK2 activ inactive.
For COc1ccccc1OCC#CCNC(=O)Nc1cccc(OC)c1OC the results were GIRK2 activ inactive.
Screening Cc1ccc(CNC(=O)c2ccc(-n3ccnc3SCC(=O)NCc3ccc(Cl)cc3)cc2)o1 returned GIRK2 activ inactive.
For O=C(NCC(O)c1ccc2c(c1)CCO2)c1cccc2ccccc12 (centres undefined) the results were GIRK2 activ inactive.
Screening CCCCOC(=O)c1ccc(NC(=O)c2nnn(-c3ccc(F)cc3)n2)cc1 returned GIRK2 activ inactive.
`COc1ccc(Cl)cc1C(=O)NCCc1ccoc1` gave GIRK2 activ inactive.
For COc1ccc(CNC(=O)C(=O)NCC2OCCCN2S(=O)(=O)c2ccc(OC)c(C)c2)cc1 (centres undefined) the results were GIRK2 activ inactive.
Screening Cc1nc(SCc2nc(-c3ccc(Cl)c(F)c3)no2)[nH]c(=O)c1Cc1ccccc1 returned GIRK2 activ inactive.
For Cc1nn(-c2ccccc2)c(C)c1N1CCN(S(=O)(=O)c2ccc(F)c(Cl)c2)CC1 the results were GIRK2 activ inactive.
For COc1ccc(NC(=O)CSc2nnc3ccc(C(=O)Nc4cccc(F)c4)cn23)c(OC)c1 the results were GIRK2 activ inactive.
CC(C)N(Cc1ccccc1)C(=O)c1nnn(-c2ccc(F)cc2)n1 was read as GIRK2 activ inactive.
Screening COc1ccc(CCC(=O)Nc2cc(-n3c(C)nc4ccccc4c3=O)ccc2F)cc1 returned GIRK2 activ inactive.
`O=C(c1ccc(OCc2nc(C3CC3)cs2)cc1)N1CCN(c2ccc(C(F)(F)F)cn2)CC1` gave GIRK2 activ inactive.
For Cn1c(=O)c2c(nc3n2CCN3c2cccc(OCc3ccc(F)cc3)c2)n(C)c1=O the results were GIRK2 activ inactive.
Screening COC(=O)/C=C(\C(=O)OC)N1CCN(C(=S)c2ccccc2O)CC1 returned GIRK2 activ inactive.
Screening CC(Cc1ccco1)NC(=O)C1(c2cccs2)CCCC1 (centres undefined) returned GIRK2 activ inactive.
CCc1ccc2ncc(C#N)c(N3CCC(C(=O)Nc4ccc(OC)c(Cl)c4)CC3)c2c1 was read as GIRK2 activ inactive.
For COc1ccc(-c2csc(/C(C#N)=C/Nc3ccc(C(=O)OC(C)C)cc3)n2)cc1OC the results were GIRK2 activ inactive.
COc1ccc(NC(=O)CSc2nccc(N3CCN(c4ccc(F)cc4)CC3)n2)cc1OC was read as GIRK2 activ inactive.
For C/C(=C\CC/C(C)=C/CC1(O)C(=O)c2c(O)cc(C)c3c(O)c(C)c(O)c(c23)C1=O)CC/C=C(\CO)CCC(O)C(C)(C)O (centres undefined) the results were GIRK2 activ inactive.
Screening CCN(CC)C(=O)c1cnc2nc(C)ccc2c1Nc1cc(OC)ccc1OC returned GIRK2 activ inactive.
COc1cccc(Oc2coc3cc(OC(=O)N4CCOCC4)ccc3c2=O)c1 was read as GIRK2 activ inactive.
O=C(Cc1cccs1)NCCC(O)c1ccc2c(c1)OCO2 (centres undefined) was read as GIRK2 activ inactive.
COc1cccc(-c2nnc(NC(=O)c3ccccc3C)o2)c1 was read as GIRK2 activ inactive.
O=C(NCc1cnn2ccccc12)Nc1ccc(Cl)c(Cl)c1 was read as GIRK2 activ inactive.
COc1ccc(OCC(O)Cn2c(NCC(C)O)nc3c2c(=O)n(C)c(=O)n3C)cc1 (centres undefined) was read as GIRK2 activ inactive.
Screening Cc1cc(C)n(CCNC(=O)c2cc(-c3ccccc3)on2)n1 returned GIRK2 activ inactive.
COc1ccccc1CNC(=O)Cn1nc2c(N3CCCCCC3)nccn2c1=O was read as GIRK2 activ inactive.
Screening COc1cc2[nH]c3c(=O)n(CC(=O)NCc4c(C)nn(C)c4C)cnc3c2cc1OC returned GIRK2 activ inactive.
`CSc1ccc(CNC(=O)c2ccc(-n3nc(C)cc3C)nc2)cc1` gave GIRK2 activ inactive.
Cc1ccc(-c2nc(C)cc(OCC(=O)NC3CCCC3)n2)cc1 was read as GIRK2 activ inactive.
For O=C(NCc1ccc2c(c1)OCO2)C(=O)NCC1(CO)CC1 the results were GIRK2 activ inactive.
For COc1cccc(C(=O)NCCOc2ccc(-c3ccccn3)nn2)c1OC the results were GIRK2 activ inactive.
`Cn1nc(-c2ccc(F)cc2)cc1C(=O)N1CCC(Oc2cnccn2)CC1` gave GIRK2 activ inactive.
CCCCCn1c(=S)[nH]c2cc(C(=O)Nc3cccc(C)c3)ccc2c1=O was read as GIRK2 activ inactive.
Screening COC1CCN(C(=O)/C=C/c2cccs2)CC1 returned GIRK2 activ inactive.
Screening O=C(O)CC(CC(=O)N(Cc1ccsc1)C1CC1)c1cccs1 (centres undefined) returned GIRK2 activ inactive.
CN1CCOc2ccc(NS(=O)(=O)c3ccc4c(c3)CCCC4)cc2C1=O was read as GIRK2 activ inactive.
Screening CC1CN(c2ccnc3c2c(=O)n(C)c(=O)n3C)CC(C)O1 (centres undefined) returned GIRK2 activ inactive.
O=C(Nc1ccc(-n2cnnn2)cc1)c1nnn(-c2ccc(F)cc2)n1 was read as GIRK2 activ inactive.
Screening COc1ccc(OC)c(NC(=O)CN2CCCN(Cc3ccccc3)S2(=O)=O)c1 returned GIRK2 activ inactive.
For Cc1csc(C(=O)NCC2CCN(S(=O)(=O)c3cccnc3)CC2)c1 the results were GIRK2 activ inactive.
Screening Cc1noc(NS(=O)(=O)c2ccc(NC(=O)CN(C)c3nc4ccccc4s3)cc2)c1C returned GIRK2 activ inactive.
`Cc1cc(NC(=O)C2CCN(C(=O)c3cnn(-c4ccccc4)c3C)CC2)no1` gave GIRK2 activ inactive.
Screening CCn1c(=O)c2c(nc3n(-c4ccc(C)c(Cl)c4)c(C)cn23)n(C)c1=O returned GIRK2 activ inactive.
Nc1c(C(=O)Nc2ccc(Cl)cc2)c2nc3ccccc3nc2n1/N=C\c1ccco1 was read as GIRK2 activ inactive.
Screening Cc1csc(COc2ccc(C(=O)Nc3cccc(NS(C)(=O)=O)c3)cc2)n1 returned GIRK2 activ inactive.
`CC(C)N(CC#CCNC(=O)COc1ccccc1F)C(C)C` gave GIRK2 activ inactive.
`COc1ccc(NC(=O)Cn2ccn(-c3ccc(OC)cc3)c(=O)c2=O)cc1` gave GIRK2 activ inactive.
`O=C(NCCCn1ncccc1=O)c1csc(Nc2cccnc2)n1` gave GIRK2 activ inactive.
For O=C(O)CCC/C=C\C[C@@H]1[C@@H](/C=C/[C@@H](O)C2CCCCC2)[C@H](O)C[C@@H]1O the results were GIRK2 activ inactive.
COc1ccc(C(=O)Nc2oc3ccccc3c(=O)c2-c2ccccc2)cc1 was read as GIRK2 activ inactive.
CC1=NN(CCN2CCN(c3ccccc3)CC2)c2nc3c(c(=O)n(C)c(=O)n3C)n2C1 was read as GIRK2 activ inactive.
Screening Cn1cc(C2=C(c3cccnc3)C(=O)NC2=O)c2ccccc21 returned GIRK2 activ inactive.
For Cc1cc(NC(=O)c2ccco2)n(-c2nc(-c3ccc4c(c3)OCO4)cs2)n1 the results were GIRK2 activ inactive.
`O=C(CSc1ccncc1)Nc1cc(-n2cccn2)ncn1` gave GIRK2 activ inactive.
Cc1cc(=O)[nH]c2c(C)cc(S(=O)(=O)N3CCCCC3)cc12 was read as GIRK2 activ inactive.
Screening COC(=O)c1ccccc1N/C=C(\C#N)c1nc2ccccc2[nH]1 returned GIRK2 activ inactive.
Screening CC(C)(C)C(=O)Nc1cccc2ccc(-n3ccnc3)nc12 returned GIRK2 activ inactive.
For Cc1[nH]c2ccc(C(=O)O)cc2c1C the results were GIRK2 activ inactive.
`O=C(CSc1nc2ccccc2s1)Nc1nc(-c2ccco2)cs1` gave GIRK2 activ inactive.
`Cc1ccc2c(CN3CCN(Cc4ccccc4)CC3)cc(=O)oc2c1` gave GIRK2 activ inactive.
For CC(C)N1CCC(CNC(=O)Cc2ccc(Cl)cc2)CC1 the results were GIRK2 activ inactive.
`Cc1cc(C)n(-c2ccc(=O)n(CCNC(=O)C3COc4ccccc4O3)n2)n1` (centres undefined) gave GIRK2 activ inactive.
Screening O=C(Nc1ccccc1C(F)(F)F)c1cccc(-n2cnnn2)c1 returned GIRK2 activ inactive.
Screening Cc1cc(C(=O)N2CCC(Cn3c(C)nc4ccccc43)CC2)c(C)o1 returned GIRK2 activ inactive.
`Cc1c(Cl)cccc1S(=O)(=O)N1CC2(COC(C)(C)OC2)C1` gave GIRK2 activ inactive.
`CCOc1ccc(-c2noc(CN3N=NC4C(=O)N(c5cccc(Cl)c5)C(=O)C43)n2)cc1OC` (centres undefined) gave GIRK2 activ inactive.
COc1ccc(N2CCCn3c2nc2c3c(=O)n(C)c(=O)n2C)cc1 was read as GIRK2 activ inactive.
`Cc1c(Cl)cccc1NC(=O)C(=O)NCCCn1ccnc1-c1ccccc1` gave GIRK2 activ inactive.
For COc1ccc(C2NC(=S)NC(C)=C2C(=O)Nc2ccccc2F)cc1 (centres undefined) the results were GIRK2 activ inactive.
Screening COc1ccc(CCNc2ncc3c(=O)n(Cc4ccccc4)c(=O)[nH]c3n2)cc1OC returned GIRK2 activ inactive.
For Cc1ccc(-c2cc3c(=O)n(CC(=O)NCCC(C)C)ccn3n2)cc1 the results were GIRK2 activ inactive.
Cc1ccccc1-c1cc(C(=O)N2CCC(NC(=O)C3CCC(C)CC3)CC2)[nH]n1 (centres undefined) was read as GIRK2 activ inactive.
`NC(=O)c1nnn(-c2ccc(NC(=O)CSCc3ccccc3)cc2)n1` gave GIRK2 activ inactive.
For CCN(CC)C(=O)c1cnc2nc(C)ccc2c1Nc1cccc(C(=O)OC)c1 the results were GIRK2 activ inactive.
COc1ccc(Cl)cc1NC(=O)C1CCC(CNS(C)(=O)=O)CC1 (centres undefined) was read as GIRK2 activ inactive.
Screening COc1cc(OC)c(NC(=O)Cn2ncn3nc(-c4ccccc4)cc3c2=O)cc1Cl returned GIRK2 activ inactive.
Screening O=C(c1ccc(Br)cc1)N1CCC(Oc2ccc(Cl)cn2)CC1 returned GIRK2 activ inactive.
Cc1nc(-c2ccco2)sc1CNC(=O)c1ccc(S(=O)(=O)N2CCOCC2)cc1 was read as GIRK2 activ inactive.
`CCOC(=O)c1oc2cc(OC(=O)c3ccco3)ccc2c(=O)c1-c1ccc(OC)cc1` gave GIRK2 activ inactive.
`CC(C)(C)NS(=O)(=O)CCNC(=O)c1ccc2c(c1)OCO2` gave GIRK2 activ inactive.
CCOC(=O)COc1ccc2c(=O)c(-c3ccc4c(c3)OCCO4)c(C(=O)OCC)oc2c1 was read as GIRK2 activ inactive.
COC(=O)c1ccc2c(=O)n(CC(=O)NCCN3CCN(c4ccccc4)CC3)c(=S)[nH]c2c1 was read as GIRK2 activ inactive.
`CN1CCN(c2ncc(NC(=O)Nc3ccc(Cl)c(C(F)(F)F)c3)cn2)CC1` gave GIRK2 activ active.
CC(C)(C)c1csc(CN2CCN(CC(=O)NC3CCCCC3)CC2)n1 was read as GIRK2 activ inactive.
For O=c1c2ccccc2oc2nc(-c3ccco3)n(-c3ccccc3)c(=O)c12 the results were GIRK2 activ inactive.
CCCc1nnsc1C(=O)NCCc1nc(-c2ccco2)cn1C was read as GIRK2 activ inactive.
For Cc1ccc(S(=O)(=O)c2nc(S(C)(=O)=O)sc2NC2CCS(=O)(=O)C2)cc1 (centres undefined) the results were GIRK2 activ inactive.
For CS(=O)(=O)N1CCN(C(=O)Cc2noc3ccccc23)CC1 the results were GIRK2 activ inactive.
Screening O=C(Cn1c(=O)nc(-c2ccccc2)c2cc(Cl)ccc21)NCc1ccc2c(c1)OCO2 returned GIRK2 activ inactive.
COc1ccc(-n2nnc(C(=O)NCCc3ccccc3)c2C2CC2)cc1 was read as GIRK2 activ inactive.
COc1cccc(NC(=O)NCc2ccsc2)c1OC was read as GIRK2 activ inactive.
Cn1nccc1-c1nnc(NC(=O)Cn2c(=O)oc3ccccc32)o1 was read as GIRK2 activ inactive.
For COCCN(Cc1ccsc1)S(=O)(=O)c1cc(C)c(C)cc1OC the results were GIRK2 activ inactive.

6 records drawn at random from the list so far:
COc1cccc(NC(=O)NCc2ccsc2)c1OC was read as GIRK2 activ inactive.
Screening O=C(Cn1c(=O)nc(-c2ccccc2)c2cc(Cl)ccc21)NCc1ccc2c(c1)OCO2 returned GIRK2 activ inactive.
For O=c1c2ccccc2oc2nc(-c3ccco3)n(-c3ccccc3)c(=O)c12 the results were GIRK2 activ inactive.
Cn1nccc1-c1nnc(NC(=O)Cn2c(=O)oc3ccccc32)o1 was read as GIRK2 activ inactive.
CC(C)(C)c1csc(CN2CCN(CC(=O)NC3CCCCC3)CC2)n1 was read as GIRK2 activ inactive.
CCCc1nnsc1C(=O)NCCc1nc(-c2ccco2)cn1C was read as GIRK2 activ inactive.

High-throughput results (PubChem)
